# Six1-Eya2 inh: qHTS Assay for Inhibitors of the Six1/Eya2 Interaction | AlphaScreen GST-Six1/His-Eya2 binding, biochemical; active compounds read low; control for the full effect not named in the record | 360,000 tested, 0.56% active | Homeobox protein SIX1 (Homo sapiens) + Protein phosphatase EYA2 (Homo sapiens), … | activity change, % (test concentration not listed) | AID 651725, 2012; in the data active = activity change below about -65%; inconclusive = about -30% to -65%; inactive = above about -30%; further: on the % scale 0 is the no-effect control and ±100 the full control effect
# Target sequence (O00167 whole entry, looked up): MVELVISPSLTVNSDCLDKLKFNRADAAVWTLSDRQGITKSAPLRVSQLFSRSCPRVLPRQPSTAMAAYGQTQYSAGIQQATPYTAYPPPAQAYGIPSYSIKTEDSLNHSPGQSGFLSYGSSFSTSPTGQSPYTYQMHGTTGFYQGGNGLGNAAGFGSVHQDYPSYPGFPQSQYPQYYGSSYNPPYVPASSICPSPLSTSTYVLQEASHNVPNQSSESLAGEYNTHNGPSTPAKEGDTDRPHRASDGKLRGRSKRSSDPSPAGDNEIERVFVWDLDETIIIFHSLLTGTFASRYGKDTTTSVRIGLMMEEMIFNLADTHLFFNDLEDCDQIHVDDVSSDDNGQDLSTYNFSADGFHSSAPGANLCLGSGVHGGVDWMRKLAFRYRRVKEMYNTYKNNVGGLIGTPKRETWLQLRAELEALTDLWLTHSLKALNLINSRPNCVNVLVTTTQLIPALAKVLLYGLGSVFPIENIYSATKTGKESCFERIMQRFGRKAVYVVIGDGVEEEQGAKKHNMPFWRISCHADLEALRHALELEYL
# Target sequence (Q15475 whole entry, looked up): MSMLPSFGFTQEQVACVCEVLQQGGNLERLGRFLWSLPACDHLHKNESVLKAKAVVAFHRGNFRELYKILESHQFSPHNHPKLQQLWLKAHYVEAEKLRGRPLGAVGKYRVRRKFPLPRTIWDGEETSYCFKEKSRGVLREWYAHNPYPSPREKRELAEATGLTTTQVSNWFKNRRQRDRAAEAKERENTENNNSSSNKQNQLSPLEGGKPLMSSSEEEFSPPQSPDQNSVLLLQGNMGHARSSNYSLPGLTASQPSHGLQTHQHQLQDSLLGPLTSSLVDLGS
#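 GST-Six1 + His-Eya2 (5X stock: 250/500 nM); Tris pH 8.0, 300 mM NaCl, 0.05% BSA, 0.02% Tween 20; GSH donor/Ni acceptor beads; 1 h 37 °C dark; AlphaScreen readout.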
# D2 potentiator: Beta-Arrestin HTS for Positive Allosteric Modulators of the Human D2 Dopamine Receptor: Potentiators | 360,000 tested, 0.23% active | DiscoveRx D2 beta-arrestin cells, luminescence, 90 min; 100% = 57 uM dopamine signal | potentiation, % (concentration not given with the values) | D(2) dopamine receptor (Homo sapiens), P14416 | AID 624464, 2012; active = potentiation of 50% or more; inconclusive = 30% to 50%; inactive = 30% or less;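 further: compound concentration not given in the record; tested on top of an EC20 dose of dopamine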
#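 PathHunter D2 cells, attached overnight at 37 deg C, received compound in DMSO plus dopamine at EC20 (50 nM final) for 90 min at 37 deg C. Beta-arrestin recruitment was read as luminescence after 1 h with detection reagent at ambient temperature.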
# D2 ag: Beta-Arrestin HTS for Positive Allosteric Modulators of the Human D2 Dopamine Receptor: Agonists; D(2) dopamine receptor (Homo sapiens), P14416; DiscoveRx PathHunter D2 beta-arrestin, luminescence, 90 min; 100% = 57 uM dopamine signal; activation, % (no concentration beside the values); 360,000 tested, 0.084% active; AID 624465, 2012; in the data active = activation above about 40%; inconclusive = about 15% to 40%; inactive = below about 15%; further: compound concentration not given in the record; the text of the record calls up to 30% inactive
#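 DiscoveRx PathHunter D2 beta-arrestin cells (2,100/well) attached overnight, then compound-stimulated 90 min at 37 C in HBSS/10 mM HEPES/0.1% Tween-20 buffer; beta-galactosidase complementation read by luminescence after 1 h at ambient temperature. Dopamine 57 uM final (EC100) as control.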
# TRPML1 ag: qHTS for Agonists of the Human Mucolipin Transient Receptor Potential 1 (TRPML1). TRPML1-expressing cells, Ca2+ dye fluorescence, FDSS; host cell line not named in the record; reference of the full effect not given here. AID 624414, 2012. Mucolipin-1 (Homo sapiens), Q9GZU1. 410,000 tested, 0.12% active. activation, % (concentration not given with the values); in the data active = activation above about 50%; inconclusive = about 30% to 50%; inactive = below about 30%; further: 0% is about no effect; the text of the record puts the active cut at 80%
#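 Cells: TRPML1-DL, 1X Tet inducer, ~16 h at 37 degrees C/5% CO2. Dye: ABD Ca8 no-wash + quencher, 45-90 min RT. Read: 10 s baseline, compound add, 110 s agonist phase; 54-4 EC80 (4uM final), 110 s antagonist phase.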
# CtBP-E1A inh: qHTS Assay for Inhibitors of the CtBP/E1A Interaction; AlphaScreen GST-E1A/His-CtBP binding, 1536-well; active compounds read low; control for the full effect not named in the record; activity change, % (test concentration not listed); 340,000 tested, 0.49% active; AID 651724, 2012; in the data active means activity change below about -65%; inconclusive means about -30% to -65%; inactive means above about -30%; further: on the % scale 0 is the no-effect control and ±100 the full control effect
#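 AlphaScreen with 125 nM GST-E1A and 125 nM His-CtBP (5X stocks) in Tris pH 8.0, 300 mM NaCl, BSA, Tween 20, TCEP. Compounds preincubated 2 h at 37 deg C, then glutathione donor/nickel acceptor beads added for 1 h at 37 deg C in dark.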
# PINK1 expr mod: A Quantitative High throughput Screen to Identify Chemical Modulators of PINK1 Expression; 410,000 tested, 0.2% active; PINK1 immunofluorescence, high-content cytometry, 24 h; Potency, µM (series often up to 76.6 µM), for the others: top-dose activation (PINK1 increase), usual class: activators; active = well fitted activation curve with a large enough effect; inconclusive = small, poorly fitted or top-dose-only effect; inactive = flat fitted curve, though single readings scatter; cell line not stated here;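 further: potency means the concentration at half of the fitted maximal effect; % of control where 0% means no effect; nearly all actives have a fitted effect of over 65% in size; a mitochondrial uncoupler was the plate control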
#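 Stable cell line, 250 cells/well, 12 h attachment; compounds pinned at 5 concentrations, 24 h; CCCP control. Fixed with nuclear dye, primary antibodies 12 h at 10 degrees C, secondary plus cell stain; laser-scanning cytometer read.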
# * marks the source's active call; other numbers are inactive results; ? = inconclusive; nt = no result given; & = joins results of further samples; [ ] = remark or other dose. This is a random part of the collection (roughly 1.3% active in at least one column).
SMILES,Six1-Eya2 inh,D2 potentiator,D2 ag,TRPML1 ag,CtBP-E1A inh,PINK1 expr mod
Cc1cc(NC(=O)c2ccccc2F)n(-c2nc3ccccc3[nH]2)n1,0,-4,0.3,2.6,-4,2.5%
CCN(CC(=O)Nc1c(F)cccc1F)C(=O)CCCN1C(=O)c2cccc3cccc(c23)C1=O,4,-9,-1.8,-0.5,7,-0.3%
COc1ccccc1CNC(=O)C(=O)NCCC1CCCCN1S(=O)(=O)c1ccc(C)cc1 (stereo not given),10,-15,-3.1,2.6,11,-3.9%
CCc1ccc(/C=N/NC(=O)c2cc(-c3ccccc3OC)nc3ccccc23)s1,-10,-14,-3.8,-0.4,-9,1.1%
Cc1ccccc1N1CCN(C(=O)c2cc(C3CC3)nn2-c2ccccc2)CC1,-3,-17,-3.7,-0.9,nt,26%
CCc1cccc(NC(=O)CN(C)S(=O)(=O)c2cccc3cccnc23)c1,?,3,0.4,1.8&1.1,-15,-1.8%&0.8%
CCOc1ccc(-c2nc(CN3CCCCC3CCn3cccn3)c(C)o2)cc1 (stereo not given),0,-19,4.1,-0.6,nt,-1.0%
COC(=O)C1Cc2c([nH]c3ccccc23)C(C(C)C)N1 (stereo not given),-5,-1,0.7,0.3,1,0.0%
Cc1ccc(OCCNC(=O)c2cncc(Br)c2)cc1C,0,12,-2.7,-0.7,4,2.5%
S=C(Nc1ccccc1)N1CCc2ccccc21,1,-1,4.8,-0.5,nt,0.5%
COc1ccc(CCCc2nnc(SCc3nc4ccccc4c(=O)[nH]3)n2C)cc1,3,-6,-3.9,0.1,2,-0.8%
CCCCNC(=O)c1onc(CSc2ccc(F)c(F)c2)c1C(=O)NCCCC,13,-4,-4.7,2.7,22,14%
O=C(O)CN=C(NS(=O)(=O)c1ccccc1)c1ccccc1,10,6,0.6,0.1,0,-1.1%
O=C(COc1coc(CN2CCc3ccccc3C2)cc1=O)N1CCOCC1,6,12,0.5,-0.3,9,-3.0%
COc1ccccc1CNC(=O)C1CCN(S(=O)(=O)c2cccc3cccnc23)CC1,-10,-6,-5.8,-0.5,-1,2.1%
Brc1cccc(-c2cnco2)c1,3,-8,-1.0,0.2,-7,3.7%
CCCC(C)(C)C(=O)N1CCC1(C)C(=O)Nc1cccc(OC)c1 (stereo not given),13,-3,-2.5,-0.5,-4,0.9%
Cc1ccnc(NC(=O)C2CCC(CNc3c(N4CCCC4)c(=O)c3=O)CC2)c1 (stereo not given),3,-12,-2.8,-0.3,-6,8.1%
CCn1c(C(C)NC(C)=O)nc2ccccc21 (stereo not given),7,-2,-3.6,-0.6,-3,0.3%
CSc1ccc(/C=C/C(=O)OCC(=O)NC2CCCCCC2)cc1,20,-5,-0.1,2.0,16,4.9%
O=C(Cc1ccccc1Cl)Nc1ccc(S(=O)(=O)Nc2nccs2)cc1,-8,3,2.3,-0.1,-10,0.2%
O=C(Nc1cccc(Cl)c1)C1CCN(C(=O)c2cccs2)CC1,6,-21,-1.6,0.0,2,0.6%
Nc1nnc(CCOc2ccc(Cl)cc2)s1,0,-4,-0.4,0.3,0,4.3%[38.3 µM]
CCN1CCN(Cc2c(O)ccc3c2O/C(=C\c2ccc(C)cc2)C3=O)CC1,-3,-7,-0.7,16,8,-1.0%
O=C(CC1C(=O)NCCN1CC1CCCCC1)NCc1ccc(F)cc1 (stereo not given),-2,-4,-3.2,-0.4,0,0.4%
CSc1nc(-c2ccc(Cl)cc2Cl)[nH]c(=O)c1C#N,-72*,-10,-5.4,1.5,?,?
O=C(O)CCCC(=O)Nc1ccc(N=Nc2ccccc2)cc1,-7,-5,-6.2,1.1,nt,1.1%
Cc1ccc(OCCC(=O)OCC(=O)Nc2ccc3c(c2)OCCO3)cc1,-7,-14,-5.1,2.0,6,0.1%
O=C(N/N=C/c1ccc2nccnc2c1)c1ccncc1,-2,3,-1.6,2.8,nt,0.2%
CCOCc1nnc(NC(=O)c2cccs2)s1,0,15,0.4,0.8,5,-0.7%
O=C(NC1CCCC1)c1cnn2c(C(F)(F)F)cc(-c3ccc4c(c3)OCO4)nc12,2,-11,-0.6,1.4,-5,8.1%
COc1cc(/C=C2/C(=N)N3N=C(C(C)C)SC3=NC2=O)ccc1OS(=O)(=O)c1ccccc1,-10,-3,-3.7,1.1,-23,-1.0%
CCC(NC(=O)COc1cc2c(c3oc(=O)c(C)c(C)c13)CCC(C)(C)O2)C(=O)O (stereo not given),-12,0,-2.6,0.9,-12,2.2%
CC1(C(=O)Nc2ccc(Cl)cc2)Cc2c(-c3ccc4c(c3)OCO4)ccnc2O1 (stereo not given),-7,-5,-1.2,-0.2,-1,7.1%
O=C(CCCl)Nc1nc2c(s1)CCc1ccccc1-2,-4,-4,1.5,1.0,-2,-0.5%
COc1ccc(C(=O)Nc2cccc(NC(=O)c3cccs3)c2)cc1OC,-5,-10,1.9,0.5,-8,1.2%
COc1ccc(-c2nc(C)c(C(C)=O)n2O)cc1OC,-6,-8,-7.4,0.8,-1,-0.4%
O=C(NCC1CCCO1)c1ccc[nH]1 (stereo not given),1,2,4.0,0.5,3,-1.3%
COc1ccc(NC(=O)C(=O)NCC(=O)Nc2cccc(C(F)(F)F)c2)cc1,10,-6,-0.5,-0.7,5,0.8%
COc1ccc(-c2c(C#Cc3ccc(N(C)C)cc3)c3ccccc3n2C)cc1,?,-8,-5.6,-0.4,?,18µM*
CCC1CN(C(=O)N2CCC(C(=O)NCc3ccccc3OC)CC2)c2cc(C)ccc2O1 (stereo not given),13,15,4.9,-0.4,0,1.8%
CC(=O)c1cccc(NC(=O)c2cccc3c(-c4cccnc4)coc23)c1,-28,6,11,-1.3,-26,11%
N#CC1=C(Nc2ccccc2Cl)SC(c2ccccc2O)NC1=O (stereo not given),1,-21,0.5,-0.3,nt,1.6%
Cc1ccccc1C1N=C2Oc3ccccc3C=C2C(=O)N1 (stereo not given),5,1,2.8,-0.5,-20,8.4%
COC(=O)c1ccc(/C=N/N2CCN(Cc3ccccc3)CC2)cc1,-12,-5,2.4,1.6,-4,6.8%

# Pulled by structure from the entries so far (3):
SMILES,Six1-Eya2 inh,D2 potentiator,D2 ag,TRPML1 ag,CtBP-E1A inh,PINK1 expr mod
CC1(C(=O)Nc2ccc(Cl)cc2)Cc2c(-c3ccc4c(c3)OCO4)ccnc2O1 (stereo not given),-7,-5,-1.2,-0.2,-1,7.1%
COC(=O)c1ccc(/C=N/N2CCN(Cc3ccccc3)CC2)cc1,-12,-5,2.4,1.6,-4,6.8%
O=C(NC1CCCC1)c1cnn2c(C(F)(F)F)cc(-c3ccc4c(c3)OCO4)nc12,2,-11,-0.6,1.4,-5,8.1%

# Other compounds follow.
SMILES,Six1-Eya2 inh,D2 potentiator,D2 ag,TRPML1 ag,CtBP-E1A inh,PINK1 expr mod
Cc1ccc(C2C(C#N)=C(N)Oc3n[nH]c(-c4cccs4)c32)s1 (stereo not given),-7,-3,-5.2,-0.2,0,-4.0%
CN1OC[C@@H]2CN(Cc3cc(Cl)cc(Cl)c3)[C@H](c3cccc(Oc4ccccc4)c3)C[C@@H]21,-19,nt,-1.4,-0.6,-8,2.7%
CCn1c(CCc2ccccc2)n[nH]c1=S,-11,-6,2.7,0.1,-3,-0.2%
Cn1c(=O)oc2cc(S(=O)(=O)NCc3ccccn3)ccc21,3,0,-0.7,-0.2,6,1.2%
Nc1nc(-c2ccco2)c(-c2ccco2)s1,?,-6,3.7,0.2,-30,-2.1%
COc1ccc(Br)cc1/C=N/N1CCN(Cc2ccccc2)CC1,?,-15,-2.7,1.9,?,10%
COc1ccc(N2CC(C(=O)OCC(=O)NCc3ccccc3)CC2=O)cc1 (stereo not given),-2,-1,-2.3,0.0,1,nt
O=C(CCCn1cc([N+](=O)[O-])cn1)NCc1ccccc1,1,-7,-1.1,0.4,11,1.1%
Cn1c(CNc2ccc(Cl)cc2)nc2ccccc21,10,-8,-1.1,0.4,-1,4.2%
Cc1cccc(Oc2coc3cc(OC(=O)c4cccs4)ccc3c2=O)c1,-11,-14,0.5,0.4,6,2.2%
Cc1nn(C)c(C)c1/C=C/C(=O)O,5,-4,-2.6,0.9,nt,0.8%
CCCS(=O)(=O)NC(=O)C1(C)CCN(C(=O)c2ccc(F)cc2Cl)C1 (stereo not given),8,2,3.1,-0.7,2,1.1%
COc1ccc([N+](=O)[O-])cc1NS(=O)(=O)c1cc(C(=O)N2CCN(C)CC2)ccc1OC,8,-20,-0.8,1.5,9,-0.1%
CC(C)NC(=O)N1Cc2cc(C(=O)NC3CCCCC3)nc(-c3cccc(-c4cccnc4)c3)c2[C@@H]1CCO,-11,nt,nt,0.2,0,-0.2%
O=C(NC1(C(F)(F)F)NC(=O)N(c2ccccc2F)C1=O)c1ccncc1 (stereo not given),-2,-15,-1.8,-0.6,-8,-1.0%
CCCCN1Cc2cc(C(=O)c3cc(F)ccc3O)cnc2NC1=O,7,-11,-12,1.5,1,13%
C[C@H]1CN([C@@H](C)CO)C(=O)c2cc(Br)cnc2O[C@H]1CN(C)Cc1ccccc1C(=O)O,0,6,-3.9,-0.8,3,0.5%
COc1cc(/C=N/NC(=O)c2ccc3c(c2)OCCO3)c(Br)c(Br)c1O,?,-18,3.6,0.0,nt,2.0%
CCOC(=O)C1CCN(C(=S)NC2CC3C=CC2C3)CC1 (stereo not given),7,-7,-3.2,0.0,13,0.8%
COc1cc(-c2nc(CN(C)Cc3nnc(C)o3)c(C)o2)ccc1F,-3,1,2.2,-0.6,5,-0.5%
COc1ccc(Cc2nc3ccc(S(N)(=O)=O)cc3[nH]2)cc1OC,-2,6,-2.9,-0.1,-1,-3.1%
CCOC(=O)Cc1nn(Cc2nc(-c3ccc(C#N)cc3)cs2)c(=O)c2ccccc12,-8,-6,-5.1,2.4,1,-0.3%
C[N+](C)(C)CCN1C(=O)c2ccccc2C1=O,0,nt,nt,-0.2,2,1.6%
CCCCCN1CN(S(=O)(=O)c2cccs2)c2nc3ccccc3nc21,3,-2,-1.3,1.7,-20,11%
Cc1ccc(C)c(S(=O)(=O)NCCN2CCOCC2)c1,4,1,4.5,0.4,8,-2.0%
COc1ccc(/C=N/NC(=O)c2cccc(Br)c2)cc1COc1ccccn1,-8,-8,-0.9,1.4,-4,2.3%
